miR-21 reporter = raises the signal of a miR-21 reporter | 340,000 tested, under 10 active | HeLa miR-21 FLuc reporter, luciferase, 48 h | Potency, µM (titrated, usually from 38.3 µM), without a hit: at the top dose reporter change, positive = more light; active = well fitted rising curve with a large enough effect; inconclusive = small, poorly fitted or top-dose-only effect; inactive = no such curve, though single readings can be large or run the other way;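 also: % of control where 0% means no effect; miR-21 action dims this reporter so a rising signal means less miR-21 action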
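Compounds were titrated across several concentrations (up to approximately 40 uM) and incubated 48 hours with HeLa miR-21-FLuc reporter cells (miR-21 target sequence downstream of FLuc, endogenous miR-21). Readout was firefly luciferase luminescence after lytic detection reagent.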
Rango release inh = inhibitors of RanGTP-induced Rango-importin beta complex dissociation. O95149+P62826. Biochemical FRET Rango-importin beta, RanGTP-induced dissociation. Potency, µM (doses to about 46.1 µM), for the others: at the highest dose activity change, negative = inhibition. 340,000 compounds, 0.071% hits; active means falling FRET ratio curve, often poorly fitted, with flat reads before Ran was added; inconclusive means other falling curves, or compound fluorescence or quenching; inactive means flat or rising ratio curve;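 also: potency is read from the fitted curve at half-maximal effect; % of control where 0% means no effect; nearly all actives have a fitted effect of over 45% in size; -100% = wells without RanGTP and RCC1; the record marks most hits as doubtful in a second field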
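Recombinant Rango FRET biosensor (EYFP–snurportin 1 IBB–cerulean CFP10) at 0.1 uM premixed with 0.25 uM importin beta in PBS, 1 mM DTT, 0.02% Tween-20, 0.1% BSA. Compound added 5 min; RanGTP-RCC1 (0.6 uM Ran, 2 mM GTP, 0.2 uM RCC1) then triggers release, read at 45 min.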
Rango complex inh = Rango-importin beta binding inhibition. Q14974. Potency, µM (series often up to 92.2 µM), inactives show at the highest dose inhibition of complex formation. 340,000 compounds, 0.031% hits. Rango CFP/YFP FRET sensor + importin beta, 45 min; active = rising FRET ratio curve, often small or poorly fitted; inconclusive = mostly compound fluorescence or quenching in the first reads; inactive = flat curves in all reads;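 also: potency is read from the fitted curve at half-maximal effect; 0% = DMSO wells and 100% = buffer wells lacking importin beta; nearly all actives have a fitted effect of over 15% in size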
Target sequence (Q14974 whole entry, looked up): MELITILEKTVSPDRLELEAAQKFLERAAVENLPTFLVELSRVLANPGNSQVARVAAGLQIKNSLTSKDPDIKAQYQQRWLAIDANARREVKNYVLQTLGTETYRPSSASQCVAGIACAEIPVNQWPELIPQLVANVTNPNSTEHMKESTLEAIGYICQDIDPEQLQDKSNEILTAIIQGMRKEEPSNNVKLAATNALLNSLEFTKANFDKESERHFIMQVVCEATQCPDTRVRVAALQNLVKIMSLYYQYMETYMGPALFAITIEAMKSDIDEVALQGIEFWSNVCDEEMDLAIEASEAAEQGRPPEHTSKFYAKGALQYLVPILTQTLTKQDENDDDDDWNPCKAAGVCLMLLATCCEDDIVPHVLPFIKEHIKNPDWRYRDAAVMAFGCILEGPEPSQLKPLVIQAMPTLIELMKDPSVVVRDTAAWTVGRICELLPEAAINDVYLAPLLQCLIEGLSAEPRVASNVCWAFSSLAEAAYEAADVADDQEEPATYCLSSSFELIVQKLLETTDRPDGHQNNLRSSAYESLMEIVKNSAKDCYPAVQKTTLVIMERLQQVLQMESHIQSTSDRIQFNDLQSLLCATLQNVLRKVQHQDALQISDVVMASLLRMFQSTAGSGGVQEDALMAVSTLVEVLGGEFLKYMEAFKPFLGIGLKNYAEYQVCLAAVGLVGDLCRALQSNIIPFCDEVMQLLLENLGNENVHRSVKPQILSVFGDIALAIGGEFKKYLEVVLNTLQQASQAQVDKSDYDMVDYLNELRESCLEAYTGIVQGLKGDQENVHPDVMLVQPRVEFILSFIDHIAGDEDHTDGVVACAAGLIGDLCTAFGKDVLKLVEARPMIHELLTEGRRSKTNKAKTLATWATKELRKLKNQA
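FRET biosensor (snurportin 1 IBB flanked by EYFP and cerulean), 50 nM, with compound 5 min, then 0.125 microM importin beta in PBS, 1 mM DTT, 0.02% Tween-20, 0.1% BSA. CFP/YFP ratio read after 45 min at room temperature; pre-read flags interference.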
GLA inh pH 4.5 = alpha-galactosidase A (human) inhibition, pH 4.5; P06280; purified enzyme, 4-MU-alpha-Gal fluorescence, pH 4.5; activity change, negative = inhibition, % at 105 µM; 230,000 tested, under 10 active; inconclusive = small, poorly fitted or top-dose-only inhibition, or a rising curve; inactive = flat fitted curve, though single readings scatter; no compound was filed as active;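 also: 0% = full activity with enzyme and -100% = basal without enzyme; dose as in the result columns while the protocol names 77 µM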
Starred values were filed as active, the others as inactive; ? = inconclusive; · = no result given. The list is partial (hit frequency here may not be typical).

miR-21 reporter	Rango release inh	Rango complex inh	GLA inh pH 4.5	Compound
?	1%	-1.2%	·	CCC(C)c1ccc(C(C)NC(=S)NCc2ccc(F)cc2)cc1 (stereo not given)
-11%	-14%	-2.4%	-11	CCC(CC)NC(=O)c1ccc2c(c1)OCCO2
-9%	21%	4.6%	-13	O=C(Nc1ccc(Br)cc1F)c1ccc2c(c1)N(Cc1ccccc1)C(=O)CS2=O (stereo not given)
·	3%	-0.6%	·	COc1ccc(OC)c(CN2CCN(C(=O)c3cccc(S(=O)(=O)Nc4ccccc4OC)c3)CC2)c1
-3%	-8%	7.2%	-10	O=C(CNS(=O)(=O)c1cccc(C(F)(F)F)c1)Nc1ccccc1F
0%	-11%	1.0%	3	O=C(NCCCn1ccnc1)C(=O)NCc1ccc(Cl)cc1
0%	13%	-0.1%	7	CCOC(=O)N1CCN(C(=O)C(CC(C)C)NS(=O)(=O)c2ccc3c(c2)oc(=O)n3C)CC1 (stereo not given)
0%	-3%	-5.1%	·	Cc1c(C)c2ccc(OCC(=O)N3CCN(c4ccccc4)CC3)cc2oc1=O
·	-5%	0.4%	·	CCOC(=O)c1c(C)[nH]c(C(=O)COC(=O)[C@H](C)N2C(=O)C3CCCCC3C2=O)c1C (stereo not given in full)
-21%	1%	5.6%	0	CCOC(=O)c1[nH]c2ccc(OC)cc2c1NC(=S)N1CCN(c2cccc(Cl)c2)CC1
4%	0%	-0.8%	3	Cc1cccc(NC(=O)c2cc(Cl)nc3ccccc23)c1
1%	0%	-1.2%	-1	O=C(CSc1nnc(-c2cccnc2)s1)Nc1cccc(C(=O)O)c1
-7%	-11%	-4.4%	2	COc1ccc(C2(CNC(=O)C(c3ccccc3)c3ccccc3)CCOCC2)cc1OC
1%	6%	1.4%	3	O=C(CSc1n[nH]c(=O)n1Cc1ccco1)Nc1ccccc1
22%	-5%	5.3%	-16	C=C(C)C(=O)N1CC2(CC(c3cccc(NC(=O)CC(c4ccccc4)c4ccccc4)c3)=NO2)C[C@H]1C(N)=O (stereo not given in full)
-6%	·	·	-2	CCOc1ccc(C2C=C(c3ccc(C)cc3)Nc3ncnn32)cc1 (stereo not given)
15%	-3%	-1.2%	1	COc1ccccc1NC(=O)C1=C(C)Nc2nc(-c3cccs3)nn2C1c1cccc(O)c1 (stereo not given)
-8%	6%	2.7%	·	Cc1nc2ccccc2c(=O)n1/N=C/c1ccccc1OC(F)F
·	0%	-1.2%	·	CCC(NC(=O)C(C)NC)C(=O)N1CCCC1C(=O)NC1CCCc2ccccc21 (stereo not given)
-2%	25%	0.8%	-18	COc1ccccc1C(=O)N1CCN(C(=O)c2ccncc2)CC1
·	-9%	4.0%	·	Cc1onc(-c2c(F)cccc2Cl)c1C(=O)Nc1ccc(Cl)c(S(=O)(=O)N(C)C)c1
-3%	18%	-1.3%	3	O=C(O)CSC1c2ccccc2C(=O)N1c1ccccc1 (stereo not given)
-7%	30%	-0.7%	·	Cc1cc(C(=O)NNC(=S)Nc2cccc(C(F)(F)F)c2)nn1C
-1%	33%	-3.1%	-6	O=C(CCC(=O)OC(C(=O)c1ccccc1)c1ccccc1)Nc1ccccc1 (stereo not given)
-64%	-13%	1.6%	6	O=c1c2ccccc2nnn1CSc1nc2ccccc2[nH]1
-10%	3%	5.2%	2	COc1cccc(NS(=O)(=O)c2ccc(Br)s2)c1
15%	0%	9.2%	·	O=C(NC1CC1)C(Cl)c1ccccc1 (stereo not given)
·	2%	2.6%	6	CCOC(=O)CN1C(=O)N[C@@H](CCc2ccccc2)[C@@H](C(=O)OC)[C@H]1C
?	-1%	-1.3%	-1	COc1ccccc1-c1nnc(SCC(=O)Nc2nc(-c3ccccc3)cs2)n1C
-9%	25%	-0.6%	-18	Cc1ccccc1N1C(=O)C(Oc2ccc(Cl)cc2)C1CNC(C)(C)C (stereo not given)
-3%	-8%	0.6%	0	Cc1cccc(CNC(=O)CCc2nnc(C3CCCCC3)o2)c1
-6%	?	-1.9%	3	C=CCNc1nc(NC(C)(C)CO)nc(OC)n1
-8%	-2%	?	-13	CC(C)Cn1c(=O)c(C(=O)NCc2ccccn2)c(O)c2ccccc21
0%	-5%	-2.7%	-5	Cc1cc(Cl)ccc1Oc1ncnc2onc(C)c12
0%	-5%	-3.6%	·	O=C(CSc1nnc(NC(=O)C2CC(=O)N(c3ccc(F)cc3)C2)s1)NCC1CCCO1 (stereo not given)
1%	-1%	-0.4%	·	O=C(CCN1C(=O)/C(=C/c2ccc(F)cc2)SC1=S)NCCc1cnc[nH]1
·	-11%	?	·	CC1(C)CC(=O)C(C=Nc2ccncc2)=C(O)C1
·	10%	-5.6%	·	Cc1ccc(NC(=O)CCN2C(=O)C3CCCCC3C2=O)c(O)c1 (stereo not given)
-31%	-9%	-0.4%	7	O=C(c1ccc(-c2ccccc2)cc1)N1CCCC1
·	-2%	-2.1%	·	Cc1cc(C(=O)COC(=O)Cc2n[nH]c(=O)c3ccccc23)c(C)n1CC(F)(F)F
-2%	31%	-1.4%	3	O=C1CCC(C(=O)OCC(=O)c2ccccc2)N1 (stereo not given)
21%	4%	-0.9%	2	Cc1ccccc1NC(=O)C(=Cc1ccc(C(=O)O)cc1)C(=O)Nc1ccccc1C
·	-10%	4.9%	·	COc1ccc(NC(=O)COC(=O)c2cc(C)oc2C)cc1OC
-3%	7%	-3.0%	9	CC(C)NC(=O)COc1ccc(/C=N/NS(=O)(=O)c2ccccc2)cc1
·	-14%	1.0%	·	COc1nc(Nc2ccccc2)nc(OC)n1
-1%	12%	-5.0%	7	COc1ccc(C(=O)N2CC(=O)Nc3ccccc32)cc1S(=O)(=O)N1CCCC1
0%	0%	-4.0%	-3	Cc1ccc(C(=O)c2nocc2C(=O)c2cccs2)cc1
0%	-7%	-0.8%	·	Cc1cc(=O)nc2c3ccccc3n(CC(=O)NCCCN3CCCC3=O)n12
-8%	10%	?	-3	[O-]/C(=C(\C(=S)NCc1ccccc1)[n+]1ccccc1)c1ccc(Cl)cc1
-6%	-13%	1.4%	5	COc1ccccc1C(=O)O/N=C1/CCCc2c1ccc(OC)c2[N+](=O)[O-]
-1%	-15%	-2.3%	·	Cc1ccc(CNC(=O)C2CCC(=O)N(CCCN3CCOCC3)C2)cc1 (stereo not given)
-3%	-14%	5.0%	-6	CN(C)CCCn1c(=O)n(CCc2ccccc2)c(=O)c2c3c(sc21)CCCCC3
-14%	-21%	-1.7%	2	CCCC(=O)NCCc1cc2ccc(OC)cc2[nH]c1=O
-1%	1%	-3.4%	-3	COC(=O)c1cc([N+](=O)[O-])ccc1N1CCN(Cc2ccccc2)CC1
-3%	3%	3.7%	-20	COCCCn1ccc(O)c(Cc2ccc(F)cc2)c1=O
·	-26%	-0.8%	·	C[C@H]1CN=C(N(C)C)N1CCC1CCCC1
1%	-1%	0.7%	-7	O=C(COC(=O)CCCc1nc2ccccc2s1)Nc1ncc(Cl)cc1Cl
1%	1%	-2.7%	0	S=C(NCc1cccnc1)NCc1cccnc1
12%	-4%	?	-4	COc1cc2c(cc1OC)/C(=C/c1ccc(Br)cc1)C(=O)OC2
-1%	1%	-0.3%	·	Cc1csc(C)[n+]1CC(=O)c1ccccc1

Record cards, from the list above. Screens in order: miR-21 reporter | Rango release inh | Rango complex inh | GLA inh pH 4.5
Cc1ccc(NC(=O)CCN2C(=O)C3CCCCC3C2=O)c(O)c1 (stereo not given) as listed: · | 10% | -5.6% | ·
[O-]/C(=C(\C(=S)NCc1ccccc1)[n+]1ccccc1)c1ccc(Cl)cc1 as listed: -8% | 10% | ? | -3
Cc1cc(C(=O)COC(=O)Cc2n[nH]c(=O)c3ccccc23)c(C)n1CC(F)(F)F as listed: · | -2% | -2.1% | ·
COC(=O)c1cc([N+](=O)[O-])ccc1N1CCN(Cc2ccccc2)CC1 as listed: -1% | 1% | -3.4% | -3
Cc1cc(=O)nc2c3ccccc3n(CC(=O)NCCCN3CCCC3=O)n12 as listed: 0% | -7% | -0.8% | ·

Remaining list, next part
miR-21 reporter	Rango release inh	Rango complex inh	GLA inh pH 4.5	Compound
-2%	·	·	1	COC(=O)c1ccc2c(c1)N(Cc1nc(-c3cccc(C)c3)oc1C)C(=O)C1CCCN21 (stereo not given)
6%	3%	0.4%	·	O=C(NCC(=O)N(c1ccc(F)cc1)C(C(=O)NC1CCCC1)c1cccnc1)c1ccco1 (stereo not given)
2%	-1%	-3.1%	·	CCOc1ccc(NC(=O)CN2CCN(C(=O)C3CCCO3)CC2)cc1 (stereo not given)
2%	4%	5.5%	·	COc1ccc(N2CCN(S(=O)(=O)c3cc(Br)cnc3N)CC2)cc1
-16%	25%	-2.3%	2	O=C(COc1ccccc1)NNc1nc2ccccc2s1
-24%	-4%	7.1%	·	CC1CCc2sc3ncnc(N4CCN(CCO)CC4)c3c2C1 (stereo not given)
0%	8%	0.3%	-14	CCn1cc(C(=O)N2CCc3ccccc32)c(=O)c2cc(S(=O)(=O)N3CC(C)CC(C)C3)ccc21 (stereo not given)
6%	9%	10%	·	O=C(CCCNC(=O)c1ccc(Cl)cc1)Nc1cccc(F)c1
0%	-6%	-0.1%	5	O=C(CN1CCN(S(=O)(=O)c2ccc3ccccc3c2)CC1)Nc1ccc(N2CCOCC2)cc1
-43%	2%	-3.0%	3	Cc1cc(C(=O)COc2ccc(F)cc2Br)c(C)n1C
-9%	?	-2.5%	·	COc1ccc(CCNC(=O)c2cc3c(=O)n4ccccc4nc3n(Cc3ccco3)c2=N)cc1OC
4%	1%	-2.0%	·	C=CCn1c(SCC(=O)N2CCOCC2)nc2ccccc2c1=O
-35%	3%	0.8%	10	CCCc1cc(=O)oc2cc(Oc3ncccn3)ccc12
·	-15%	-2.0%	·	COc1ccc(S(=O)(=O)N2CCCCCC2)cc1C(=O)NCCc1ccc(F)cc1
22%	-18%	3.8%	1	CC(/C=N/NC(=O)c1cc(-c2ccncc2)nc2ccccc12)=C\c1ccco1
?	1%	-2.0%	-6	O=C(N/N=C/C=C\c1ccccc1[N+](=O)[O-])c1cc(-c2ccc3ccccc3c2)n[nH]1
-5%	5%	1.7%	·	O=c1c(-c2ccc(Cl)cc2)coc2c(CN3CCCCC3)c(O)ccc12
-5%	4%	?	5	O=C(N/N=C\c1cccc(Cl)c1)c1ccc(Cn2cc(Br)c([N+](=O)[O-])n2)o1
·	-10%	?	·	CC(=O)c1ccc(OCc2cn(CC(=O)c3ccc(O)cc3)nn2)cc1
-1%	-9%	1.6%	·	C=CCn1c(=O)c2c(nc(-n3nc(C)cc3C)n2C)n(C)c1=O
3%	4%	0.5%	5	COc1ccc(CCNC(=O)COc2ccc(S(=O)(=O)N3CCOCC3)cc2)cc1
-8%	6%	1.3%	·	Cc1nc2ccccc2n1CCOc1ccc(F)cc1
0%	0%	-0.6%	·	COc1ccccc1CC(=O)NNS(=O)(=O)c1cccc([N+](=O)[O-])c1
2%	25%	-0.5%	·	COc1ccc(N/C=C(\C#N)S(=O)(=O)c2ccc(OC)cc2)cc1
1%	2%	-1.7%	14	COc1cc(/C=C/C(=O)OCC(=O)Nc2c(C)n(C)n(-c3ccccc3)c2=O)ccc1OCC#N
-2%	?	?	-6	O=C(O)CN1C(=O)C2C3CC(C2C1=O)C1C(c2ccc(F)cc2)c2sc(=O)[nH]c2SC31 (stereo not given)

Screening results as filed in PubChem.
